# Screens: PubChem BioAssay, Broad Institute
# NOMO-1 viab – STK33 inhibitor candidate reducing NOMO-1 cell viability; NOMO-1 AML viability, CellTiter-Glo luminescence, 72 h; inhibition, % (test concentration not listed); hit rate 7.5% among 37,000; AID 2330;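 active = most replicates above 80%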;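 also: wells of about 30 µL received 25 nL stock; 0% = median of vehicle wells and 100% = reference inhibitor level; the first replicate is given; inactives centre near 10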
# Active calls of the source: *. These rows are one share of the data, so the mix of outcomes need not match the whole.
SMILES,NOMO-1 viab
C[C@@H]1CCCCO[C@H](CN(C)Cc2ccc(C(=O)O)cc2)[C@@H](C)CN([C@H](C)CO)C(=O)c2cc(NC(=O)Nc3ccc4c(c3)OCO4)ccc2O1,1.6
CC1C(c2ccccc2)CC(C(=O)O)C1(C)C (stereo unspecified),6.1
CCCCc1c(O)cc(-c2ccccc2)n(Cc2ccccc2)c1=O,32.8
C[C@@H]1CN([C@@H](C)CO)C(=O)c2cc(NC(=O)Cc3cn(C)c4ccccc34)ccc2O[C@@H]1CN(C)C(=O)NC1CCCCC1,16.2
COc1ccc(-c2cc(C(F)F)n3ncc(C(=O)Nc4cccc(S(=O)(=O)N5CCOCC5)c4)c3n2)cc1,27.1
O=C(O)c1cccc(NS(=O)(=O)c2cccc(C(=O)Nc3ccc(F)cc3)c2)c1,7.7
Cc1ccc(S(=O)(=O)N(Cc2cc3cccc(C)c3[nH]c2=O)c2ccccc2)cc1,116.5*
CCC(=O)NC(c1ccccc1OC)c1c(O)ccc2ccccc12 (stereo unspecified),50.8
CCOc1ccc(C(=O)NC2CCCCC2)cc1,9.1
Cc1noc(C)c1S(=O)(=O)Nc1ccc2c(c1)C(=O)N([C@H](C)CO)C[C@H](C)[C@H](CN(C)Cc1ccc(Cl)c(Cl)c1)OCCCC[C@@H](C)O2,36.2
N#CCc1ccc(NC(=O)CN2C(=O)c3ccccc3S2(=O)=O)cc1,-22.2
C[C@H]1CN([C@@H](C)CO)C(=O)c2cccc(NC(=O)c3cnccn3)c2O[C@@H]1CN(C)Cc1ccc(Oc2ccccc2)cc1,42.6

# Pulled by compound from the entries so far, 7 records:
SMILES,NOMO-1 viab
COc1ccc(-c2cc(C(F)F)n3ncc(C(=O)Nc4cccc(S(=O)(=O)N5CCOCC5)c4)c3n2)cc1,27.1
C[C@@H]1CN([C@@H](C)CO)C(=O)c2cc(NC(=O)Cc3cn(C)c4ccccc34)ccc2O[C@@H]1CN(C)C(=O)NC1CCCCC1,16.2
CCOc1ccc(C(=O)NC2CCCCC2)cc1,9.1
C[C@@H]1CCCCO[C@H](CN(C)Cc2ccc(C(=O)O)cc2)[C@@H](C)CN([C@H](C)CO)C(=O)c2cc(NC(=O)Nc3ccc4c(c3)OCO4)ccc2O1,1.6
C[C@H]1CN([C@@H](C)CO)C(=O)c2cccc(NC(=O)c3cnccn3)c2O[C@@H]1CN(C)Cc1ccc(Oc2ccccc2)cc1,42.6
Cc1noc(C)c1S(=O)(=O)Nc1ccc2c(c1)C(=O)N([C@H](C)CO)C[C@H](C)[C@H](CN(C)Cc1ccc(Cl)c(Cl)c1)OCCCC[C@@H](C)O2,36.2
CCC(=O)NC(c1ccccc1OC)c1c(O)ccc2ccccc12 (stereo unspecified),50.8

# The listing picks up with the two entries that preceded the break.
SMILES,NOMO-1 viab
N#CCc1ccc(NC(=O)CN2C(=O)c3ccccc3S2(=O)=O)cc1,-22.2
C[C@H]1CN([C@@H](C)CO)C(=O)c2cccc(NC(=O)c3cnccn3)c2O[C@@H]1CN(C)Cc1ccc(Oc2ccccc2)cc1,42.6
Cc1nn(Cc2cccc(Oc3ccccc3)c2)c(C)c1NC(=O)c1nc2ncccn2n1,5.4
C[C@@H]1CN([C@@H](C)CO)C(=O)Cc2cc(NC(=O)Cn3cnnn3)ccc2O[C@@H]1CN(C)S(=O)(=O)c1ccccc1,3.9
O=C(COc1cccc2ccccc12)Nc1cc([N+](=O)[O-])ccc1O,17.5
C[C@@H]1CN([C@@H](C)CO)C(=O)c2cccc(NC(=O)C3CCOCC3)c2O[C@@H]1CN(C)C(=O)Nc1ccc(F)cc1,-9.9
Cc1noc(C)c1S(=O)(=O)N(C)C[C@H]1Oc2c(NS(=O)(=O)c3cn(C)cn3)cccc2C(=O)N([C@H](C)CO)C[C@H]1C,15.6
CC(C)NC(=O)Nc1ccc2c(c1)CC(=O)N([C@H](C)CO)C[C@@H](C)[C@H](CN(C)CC1CC1)O2,10.1
Cc1cc(=O)[nH]c(SCC(=O)Nc2ccccc2)n1,2.2
CNC(=O)CN(c1cccc2ccccc12)S(C)(=O)=O,26.6
C[C@H](CO)N1C[C@H](C)[C@H](CN(C)C(=O)NC2CCCCC2)Oc2ccc(NC(=O)c3ccncc3)cc2CC1=O,-3.2
COc1ccc(NC(=O)N(C)C[C@H]2Oc3ccc(NS(=O)(=O)c4ccc(C)cc4)cc3CC(=O)N([C@@H](C)CO)C[C@H]2C)cc1,1.8
CCOc1ccc2nc(NCc3cc(OC)c(OC)cc3OC)sc2c1,-5.1
C[C@H]1CN([C@@H](C)CO)C(=O)c2cc(N(C)C)ccc2O[C@H]1CN(C)C(=O)Nc1cccc2ccccc12,7.1
C[C@H](CO)N1C[C@H](C)[C@@H](CN(C)C(=O)Nc2ccc(C(F)(F)F)cc2)Oc2c(NS(C)(=O)=O)cccc2C1=O,19.9
CCOC(=O)/C(=N\O)C1=CSC2=NNC(C)(C)N12,50.8
Nc1ccc(S(=O)(=O)C(F)(F)F)cc1,-8.5
C[C@@H]1CN([C@@H](C)CO)C(=O)Cc2cc(NC(=O)CCN3CCOCC3)ccc2O[C@@H]1CN(C)Cc1ccc(Cl)c(Cl)c1,21.8
C[C@@H]1CN([C@H](C)CO)C(=O)c2cc(NC(=O)C3CCCCC3)ccc2O[C@@H]1CN(C)Cc1ccc2c(c1)OCO2,10.0
N#Cc1ccccc1NC(=O)COc1ccccc1[N+](=O)[O-],-3.8
COc1ccc(OC)c(NC(=O)C(=O)NCc2ccco2)c1,-11.4
C[C@@H]1CN([C@@H](C)CO)C(=O)c2cccc(NC(=O)c3ccc(-c4nccs4)cc3)c2O[C@@H]1CN(C)S(=O)(=O)c1cn(C)cn1,-10.9
Cc1cccc(-n2c(N)cc(=O)nc2SCC(=O)N2c3ccccc3Sc3ccccc32)c1,-1.7
C[C@H](CO)N1C[C@H](C)[C@H](CN(C)C(=O)Nc2ccccc2)Oc2ccc(NC(=O)CCN3CCOCC3)cc2C1=O,-21.6
FC(F)(F)COc1ccc(-c2nnc(SCc3ccccc3C(F)(F)F)o2)cn1,4.3
CC(C)NC(=O)N(C)C[C@@H]1Oc2ccc(N(C)C)cc2C(=O)N([C@H](C)CO)C[C@@H]1C,-6.6
C[C@@H]1CN([C@@H](C)CO)C(=O)Cc2cc(NC(=O)CCCCCC(=O)Nc3ccccc3N)ccc2O[C@@H]1CN(C)S(=O)(=O)c1cn(C)cn1,-0.9
COc1cccc(C(=O)COc2cccc(NC(=O)c3ccc(Cl)c(Cl)c3)c2)c1,43.6
COC(=O)Nc1sc(C)c(C)c1C(=O)NCc1cccnc1,-3.4
CC(C)NC(=O)N(C)C[C@@H]1Oc2ccc(NC(=O)Nc3cccc4ccccc34)cc2C(=O)N([C@H](C)CO)C[C@@H]1C,-2.5
COc1ccccc1OCC(=O)Nc1cccc(-c2nc3ccccc3o2)c1,6.4
Cc1cc(OCC(=O)Nc2ccccc2C(=O)NC2CCCCC2)cc(C)c1Cl,13.8
C[C@@H]1CN([C@H](C)CO)C(=O)Cc2cc(NC(=O)Cc3cn(C)c4ccccc34)ccc2O[C@@H]1CN(C)C(=O)Nc1ccc(C(F)(F)F)cc1,5.9
CCOc1ccc(-n2c(SCc3nc(-c4ccc(C)cc4)no3)nnc2-c2ccncc2)cc1,15.7
COc1ccc(S(=O)(=O)Nc2cccc3c2O[C@@H](CN(C)C(=O)NC2CCCCC2)[C@@H](C)CN([C@@H](C)CO)C3=O)cc1,14.6
C[C@@H]1CN([C@@H](C)CO)C(=O)c2cccc(N(C)C)c2O[C@@H]1CN(C)Cc1ccncc1,7.2
C[C@@H]1CN([C@H](C)CO)C(=O)c2cc(NS(=O)(=O)c3cccs3)ccc2O[C@@H]1CN(C)Cc1ccc(C(F)(F)F)cc1,2.6
CC(NS(=O)(=O)c1ccc(F)cc1)C(=O)Nc1ccccc1Sc1ccccc1 (stereo unspecified),27.7
C[C@@H]1CCCCO[C@@H](CN(C)C(=O)c2ccccc2)[C@@H](C)CN([C@H](C)CO)C(=O)c2cc(NC(=O)Nc3ccc(F)cc3)ccc2O1,1.4
C[C@@H]1CN([C@H](C)CO)C(=O)c2cc(NS(=O)(=O)c3ccccc3)ccc2O[C@@H]1CN(C)Cc1ccc(-c2ccccc2)cc1,121.3*
C[C@H]1CN([C@@H](C)CO)C(=O)c2cccc(NS(=O)(=O)c3cccs3)c2O[C@H]1CN(C)Cc1ccc(Oc2ccccc2)cc1,37.8
CCOC(=O)c1nnn(-c2nonc2-n2cccc2)c1CN1CCOCC1,24.9
COc1ccc(/C=N/c2oc(C)c(C)c2C#N)c(OC)c1,9.0
COc1cc(NC(=O)C2CC=CCC2C(=O)O)ccc1NC(=O)c1ccccc1 (stereo unspecified),12.4
C[C@@H]1CN([C@@H](C)CO)C(=O)c2cc(NC(=O)Nc3ccc4c(c3)OCO4)ccc2O[C@@H]1CN(C)Cc1ccc(C(F)(F)F)cc1,90.5*
C[C@@H]1CN([C@@H](C)CO)C(=O)c2cc(NC(=O)Cc3ccccc3)ccc2O[C@@H]1CN(C)CC1CCCCC1,17.8
C[C@H]1CN([C@@H](C)CO)C(=O)c2cccc(NC(=O)Nc3ccc4c(c3)OCO4)c2O[C@H]1CN(C)Cc1ccc(Oc2ccccc2)cc1,52.3
C[C@@H]1CN([C@@H](C)CO)C(=O)c2cccc(NC(=O)Nc3ccc4c(c3)OCO4)c2O[C@H]1CN(C)Cc1ccncc1,33.2
CCc1cc2c(=O)oc(-c3ccc(Br)cc3)nc2s1,22.0
Cc1cc(C(=O)Nc2cccc3c2O[C@@H](CN(C)Cc2ccc(Oc4ccccc4)cc2)[C@@H](C)CN([C@@H](C)CO)C3=O)n(C)n1,34.3
COC(=O)COc1cccc(NC(=O)c2cccc(C)c2)c1,121.0*
COc1ccc(CN(C)C[C@H]2Oc3ccc(NC(=O)C4CCCCC4)cc3CC(=O)N([C@H](C)CO)C[C@H]2C)cc1,-11.7
C[C@H](CO)N1C[C@H](C)[C@H](CN(C)Cc2ccc(C(=O)Nc3ccccc3N)cc2)Oc2ccc(NC(=O)Cn3cnnn3)cc2CC1=O,96.6*
C[C@H](CO)N1C[C@H](C)[C@@H](CN(C)Cc2ccc(C(=O)O)cc2)Oc2c(NC(=O)Nc3ccc(F)cc3)cccc2C1=O,2.6
O=C(CCc1nc(-c2ccccc2Cl)no1)Nc1ccccc1[N+](=O)[O-],2.5
Cc1cc(C)c2c(CC(=O)N(CC#N)CC#N)coc2c1,2.0
COc1ccc(NC(=O)N(C)C[C@@H]2Oc3c(NS(C)(=O)=O)cccc3C(=O)N([C@@H](C)CO)C[C@H]2C)cc1,24.9
C[C@@H]1CN([C@H](C)CO)C(=O)c2cccc(NC(=O)Nc3ccc4c(c3)OCO4)c2O[C@@H]1CN(C)C(=O)NC1CCCCC1,-0.2
COC(=O)c1cc(OC)c(OC)cc1NC(=O)c1cc(-c2cccnc2)nc2ccc(Cl)cc12,17.8
C[C@H](CO)N1C[C@H](C)[C@H](CN(C)Cc2ccc(C(=O)O)cc2)Oc2ccc(NC(=O)Cc3cn(C)c4ccccc34)cc2C1=O,2.7
CCOC(=O)c1c(/N=C/c2ccc(N(C)C)cc2)sc(C)c1C,20.8
CNC[C@@H]1Oc2ccc(NC(=O)C3CCCCC3)cc2CC(=O)N([C@@H](C)CO)C[C@@H]1C,2.2
# More compounds follow.
SMILES,NOMO-1 viab
C[C@@H]1CN([C@H](C)CO)C(=O)c2cc(N(C)C)ccc2O[C@H]1CN(C)Cc1ccc(Cl)c(Cl)c1,96.7*
COc1ccc(CN(C)C[C@H]2Oc3ccc(NS(=O)(=O)c4ccc(C)cc4)cc3C(=O)N([C@@H](C)CO)C[C@H]2C)cc1,17.0
C[C@@H]1CN([C@@H](C)CO)C(=O)Cc2cc(NC(=O)Cc3ccccc3)ccc2O[C@@H]1CN(C)S(=O)(=O)c1cccs1,4.2
CCCn1nnc(NC(=O)COc2ccc(Br)cc2)n1,-16.6
C[C@@H]1CN([C@@H](C)CO)C(=O)c2cccc(NC(=O)c3cnccn3)c2O[C@@H]1CN(C)Cc1ccc(Oc2ccccc2)cc1,35.5
COc1ccc(NC(=O)Nc2ccc3c(c2)C(=O)N([C@@H](C)CO)C[C@@H](C)[C@@H](CN(C)S(=O)(=O)c2ccc(C)cc2)O3)cc1,19.9
C[C@H]1CN([C@@H](C)CO)C(=O)c2cc(NC(=O)C3CCCCC3)ccc2O[C@H]1CN(C)Cc1ccc(Cl)c(Cl)c1,28.4
Cc1ccc(NC(=O)C(C)Sc2nccc(C)n2)cc1 (stereo unspecified),5.1
C[C@@H]1CN([C@H](C)CO)C(=O)c2cc(NC(=O)CCN3CCOCC3)ccc2O[C@@H]1CN(C)Cc1ccc(C(=O)O)cc1,1.1
CC(C)(C)c1ccc(S(=O)(=O)NCC(=O)Nc2cccc(Cl)c2)cc1,57.6
O=C(CSc1nc(-c2ccccc2)cc(C(F)(F)F)n1)c1cccc([N+](=O)[O-])c1,28.7
CNC[C@H]1Oc2c(NC(=O)Nc3ccc(OC)cc3)cccc2C(=O)N([C@H](C)CO)C[C@@H]1C,-4.2
C[C@@H]1CCCCO[C@H](CN(C)C(=O)NC2CCCCC2)[C@@H](C)CN([C@H](C)CO)C(=O)c2cc(NS(=O)(=O)c3ccc(Cl)cc3)ccc2O1,24.5
C[C@@H]1CN([C@@H](C)CO)C(=O)c2cc(NS(=O)(=O)c3cccs3)ccc2O[C@@H]1CN(C)Cc1ccc(C(=O)O)cc1,4.2
COc1ccccc1NC(=O)C1=C(C)Nc2ncnn2C1c1ccccn1 (stereo unspecified),-12.8
CC(=O)Nc1ccc(NC(=O)CSc2nncn2C)cc1,9.0
C[C@@H]1CN([C@@H](C)CO)C(=O)c2cccc(NS(=O)(=O)c3cccs3)c2O[C@@H]1CN(C)Cc1ccccc1,-1.4
C[C@@H]1CN([C@@H](C)CO)C(=O)c2cc(NS(=O)(=O)c3ccccc3)ccc2O[C@H]1CN(C)C(=O)NC1CCCCC1,7.9
C[C@H](CO)N1C[C@H](C)[C@H](CN(C)Cc2ccc(Oc3ccccc3)cc2)Oc2ccc(NC(=O)Cn3cnnn3)cc2C1=O,12.1
C[C@@H]1CN([C@@H](C)CO)C(=O)c2cccc(N(C)C)c2O[C@H]1CN(C)S(=O)(=O)c1cn(C)cn1,-9.5
C[C@H](CO)N1C[C@H](C)[C@@H](CN(C)Cc2ccc(Cl)c(Cl)c2)Oc2c(NC(=O)c3cnccn3)cccc2C1=O,50.6
COc1cccc(S(=O)(=O)NCC(=O)N2CCCCCC2)c1,13.3
COc1ccccc1NC(=O)CN1C(=O)c2cccc3cccc(c23)C1=O,24.1
